Resorufin fluor = resorufin region autofluorescence; AID 588; Compound fluorescence, resorufin region 547/598 nm, buffer; hits give high values; 0.04% of 59,000 active; max dye-equivalent concentration, M; active = above 10 nM dye equivalent; inconclusive = 1 to 10 nM; inactive = 1 nM or less; a few of its hits are not listed in these tables; also: highest value over a series up to 38 µM
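Dye-equivalent concentration values derive from comparing each well's 547/598 nm fluorescence against resorufin standards included on every plate. Incubation was 15 min at room temperature in 100 mM Tris, pH 8.0.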
A647 fluor = A647 region autofluorescence. 59,000 tested, under 10 active. Compound fluorescence, A647 channel (570/671 nm), Tris buffer. max dye-equivalent concentration, M; active means above 1 µM dye equivalent; inconclusive means 0.1 to 1 µM; inactive means 0.1 µM or less;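 also: values scaled relative to a standard on each plate; highest value over a series up to 38 µM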
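Tris 100 mM pH 8.0; cpd + A647 stds pin-transferred; 15 min RT; CCD imager, ex 570/em 671. Output = A647-equivalent conc. per cpd conc.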
A488 fluor = compound fluoresces in the A488 spectral region; compound autofluorescence, A488 spectral region, dye equivalency; hits give high values; max dye equivalency, M; 0.1% of 59,000 active; active = above 10 nM dye equivalent; inconclusive = 1 to 10 nM; inactive = 1 nM or less; about half of its hits are not listed in these tables;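 also: highest value over a series up to 38 µM; compound alone in buffer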
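Read-out: relative fluorescence at 480/540 nm, expressed as Alexa 488 dye-equivalent concentration from a six-point A488 standard included per plate. Conditions: 100 mM Tris, pH 8.0; 15 min incubation, room temperature.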
TSHR ag = activates the human thyroid stimulating hormone receptor; Potency, µM (series often up to 57.1 µM), for the others: at the top dose activation, hits mostly activators; HEK293-CNG-TSHR cells (CNG channel as cAMP sensor), membrane potential dye, cAMP; 0.48% of 73,000 active; active = well fitted activation curve of enough size with the parental cells flat; inconclusive = any curve in the parental cells; inactive = parental cells flat and receptor cells flat or falling; also: potency is read from the fitted curve at half-maximal effect; % of control where 0% means no effect; weak receptor curves with flat parental cells got no call and are not listed
Target sequence (P16473 whole entry, looked up): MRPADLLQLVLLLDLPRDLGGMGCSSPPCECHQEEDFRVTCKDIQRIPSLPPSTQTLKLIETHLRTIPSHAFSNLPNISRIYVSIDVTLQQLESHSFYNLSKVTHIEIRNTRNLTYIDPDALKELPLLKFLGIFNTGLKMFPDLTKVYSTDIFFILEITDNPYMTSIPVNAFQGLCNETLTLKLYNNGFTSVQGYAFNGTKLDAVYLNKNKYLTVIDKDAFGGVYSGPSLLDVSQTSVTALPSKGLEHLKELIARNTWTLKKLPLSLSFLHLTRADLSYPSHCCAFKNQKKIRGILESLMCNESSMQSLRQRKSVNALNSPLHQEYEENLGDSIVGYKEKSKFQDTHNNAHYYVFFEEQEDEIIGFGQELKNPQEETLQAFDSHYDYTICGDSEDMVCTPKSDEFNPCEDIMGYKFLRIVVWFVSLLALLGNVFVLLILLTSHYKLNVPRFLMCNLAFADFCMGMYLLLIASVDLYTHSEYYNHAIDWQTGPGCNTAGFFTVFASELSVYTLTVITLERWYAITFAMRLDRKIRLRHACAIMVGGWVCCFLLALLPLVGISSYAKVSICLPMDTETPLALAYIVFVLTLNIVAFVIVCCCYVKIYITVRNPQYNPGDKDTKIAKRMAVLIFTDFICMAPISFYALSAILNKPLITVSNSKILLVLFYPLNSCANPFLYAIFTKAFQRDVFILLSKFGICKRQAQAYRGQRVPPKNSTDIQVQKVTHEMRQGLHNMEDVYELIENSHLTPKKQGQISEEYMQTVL
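HEK 293 cells stably expressing TSHR and a cAMP-gated CNG channel; parental CNG-only cells as counterscreen. Cells preloaded 60 min with membrane potential dye plus 100 uM RO 20-1724, then compound 30 min; fluorescence read at 590 nm.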
AID923 = qHTS Assay for Allosteric/Competitive Inhibitors of Caspase-1: Spectroscopic Profiling in AFC Spectral Region | compound fluorescence, AFC spectral region (405/520 nm); almost no hit is shown here | Potency, µM (doses to about 57.5 µM), inactives show at the highest dose fluorescence increase, actives largely listed as activators | 1.1% of 75,000 active | AID 923, 2007; active = well fitted activation curve with a large enough effect; inconclusive = small, poorly fitted or top-dose-only effect;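 also: potency is read from the fitted curve at half-maximal effect; 0% is about no effect; scaled to a free AFC standard on each plate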
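Baseline compound fluorescence (AFC region, 405 nm ex/520 nm em) taken from the intercept of kinetic reads with 50 nM caspase-1 and 5 uM Ac-WEHD-AFC; normalized to an on-plate AFC standard curve; compounds titrated up to 57 uM.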
* hit, by the source's call; i = inactive; ? = inconclusive; . = not tested or not shown; [ ] = another dose, or the depositor's remark. Not all compounds are listed; count on the stated rates, not on these rows.

SMILES	Resorufin fluor	A647 fluor	A488 fluor	TSHR ag	AID923
Cn1cccc1C(C(=O)NC1CCCCC1)N(C(=O)Cc1cccs1)c1ccc2c(c1)OCO2 (stereo not drawn)	i	3e-08	i	?	0.5%
CC(=O)/C(=N\N=C(N)N)c1ccccc1	i	1e-09	i	1%[11.4 µM]	1.4%[11.5 µM]
Cc1ccc(-n2c3c(cc(C(=O)NCc4ccco4)c2=O)C(=O)CC(C)(C)C3)cc1	.	.	.	4µM*	-0.4%
CCOC(=O)N1CCN(C(=O)C2COc3ccccc3O2)CC1 (stereo not drawn)	.	.	.	-1%	1.3%
CCOc1ccccc1-n1c(SCC(=O)NC)nnc1-c1ccco1	i	7.8e-09	i	-2%	-0.6%
COc1cc(-c2nnc(SCc3c(F)cccc3Cl)o2)cc(OC)c1OC	.	.	.	?	-0.4%
Cc1cc(NC(=O)c2cccnc2)ccc1NC(=O)c1ccco1	i	1e-09	i	26%	0.9%
Cc1ccc2ccccc2c1COC(=O)c1nonc1N	i	1e-09	i	?	0.6%
CC(C)(C)c1cc(O)c(C(C)(C)C)cc1O	.	.	.	26%	-2.6%
O=C(C1CCN(c2nnc(-n3cccc3)s2)CC1)N1CCOCC1	.	.	.	1%	-1.7%
CC1N(C)c2cc(NC(=O)c3ccco3)ccc2C1(C)C (stereo not drawn)	?	4.8e-09	i	-1%	0.7%
CCN(CC)C(=O)COc1ccc2oc(C)c(C(=O)OC)c2c1	i	2.5e-08	i	12%	-0.4%
COc1ccc2cc(CN(CCO)C(=O)c3ccc(Br)cc3)c(=O)[nH]c2c1	i	1e-09	i	?	3.8%
O=C(Nc1ccc(-n2nncc2-c2ccco2)cc1)c1cc2ccccc2oc1=O	i	2.6e-09	i	2%	3.5%
COC(=O)N(C)c1nc2ccccc2s1	i	6.5e-09	i	?	-2.9%
O=C(CN1C(=O)COc2ccccc21)N(Cc1cccnc1)Cc1cccc(F)c1	i	4.6e-09	i	?	0.6%
Cc1nc2cnc(N3CCOCC3)nc2n(CCc2ccccc2)c1=O	i	1.3e-08	i	?	8.2%
Cc1ccc2c(c1)-c1ccccc1S(=O)(=O)N2	i	3.7e-08	i	3%	2.2%
Cc1ccc(C)c(N2CCN(C(=O)c3cc4ccccc4oc3=O)CC2)c1	.	.	.	77%	-2.9%
COc1ccc(CC(=O)Nc2ccc(S(=O)(=O)NCC3CCCO3)cc2)cc1 (stereo not drawn)	i	1e-08	i	-7%	0.0%
CN(Cc1ccccc1)C(=O)COC(=O)c1ccc2c(c1)OCO2	i	1e-09	i	1%	1.2%
CN1C(=O)CSc2ccc(C(=O)O)cc21	.	.	.	1%	-0.5%
COc1ccc(OC)c(-n2c(SCC(=O)N3CCc4ccccc43)nc3c(c2=O)SCC3)c1	.	.	.	13%	0.7%
CC(C)(C)n1cnc2cc(NS(=O)(=O)c3ccccc3)ccc21	i	1e-09	i	0%	-2.0%
Cn1cc(CC(=O)N2CCN(c3ccc(Cl)cc3)CC2)c2ccccc21	i	5e-09	i	7%	-1.2%

Part of the list above, reduced to TSHR ag, A647 fluor and A488 fluor:
Structure | TSHR ag | A647 fluor | A488 fluor
CC(=O)/C(=N\N=C(N)N)c1ccccc1 | 1%[11.4 µM] | 1e-09 | i
Cc1ccc(-n2c3c(cc(C(=O)NCc4ccco4)c2=O)C(=O)CC(C)(C)C3)cc1 | 4µM* | . | .
CCOC(=O)N1CCN(C(=O)C2COc3ccccc3O2)CC1 (stereo not drawn) | -1% | . | .
CCOc1ccccc1-n1c(SCC(=O)NC)nnc1-c1ccco1 | -2% | 7.8e-09 | i

Following part.
SMILES	Resorufin fluor	A647 fluor	A488 fluor	TSHR ag	AID923
CCn1c(=O)n(CC)c2cc(S(N)(=O)=O)c(C)cc21	i	1e-09	i	-1%	0.1%
O=C(CN1C(=O)c2ccccc2S1(=O)=O)Nc1ccccc1C(=O)NCc1ccco1	i	1e-09	i	-1%	-0.8%
CCOC(=O)OCC1OC(C#Cc2ccccc2)C=CC1OC(=O)OCC (stereo not drawn)	.	.	.	0%[11.4 µM]	12%[11.5 µM]
O=c1nc2n(c3cc(Cl)c(S(=O)(=O)N4CCOCC4)cc13)CCCCC2	i	6.7e-09	i	-3%	-1.5%
CC(C)C(=O)Nc1ccc(C(=O)NC2CCSC2=O)cc1 (stereo not drawn)	i	5.7e-08	i	-2%	0.1%
CC1CCN(C(=O)CSc2nnc(Cc3cc(=O)[nH]c(=O)[nH]3)n2-c2ccc(Cl)cc2)CC1	.	.	.	4%	0.7%
CCOC(=O)CSc1nnc(-c2ccc(OC)cc2OC)o1	i	8e-09	i	2%	-1.8%
CCc1cc2c(cc(C(=O)O)n2C)s1	i	2.5e-08	i	8%	1.8%
CC(C)n1c(SCC(=O)Nc2ccc3c(c2)OCO3)nc2c1c(=O)n(C)c(=O)n2C	i	3.3e-08	i	4%	1.0%
COc1ccc(C(=O)NCC(=O)n2nc(C)cc2C)cc1OC	i	8.1e-08	i	.	.
CCCc1ncc(C(=O)c2ccc(OC)cc2)n1C	i	2.4e-08	i	11%	-0.3%
CCCc1nc(SCC(=O)c2ccc(OC)cc2)c2c(=O)n(C)c(=O)n(C)c2n1	.	.	.	-1%	0.1%
NC(=O)C1CCN(C(=O)C23CC4CC(CC(C4)C2)C3)CC1	i	2e-09	i	2%	-0.2%
COC(=O)n1c(=O)oc2cc(S(=O)(=O)N3CCOCC3)ccc21	i	2.1e-08	i	2%[11.4 µM]	1.5%
CCc1nnc(NC(=O)c2ccc(S(=O)(=O)NC3CCCCC3)cc2)s1	i	7.5e-09	i	10%	0.2%
COCCn1c(SCCCc2ccccc2)nc2c1c(=O)[nH]c(=O)n2C	i	2.8e-08	i	13%	-1.3%
CCOC(=O)C(C)Oc1ccc2c(C)cc(=O)oc2c1C(C)=O (stereo not drawn)	i	2.5e-09	i	.	.
CNC(=O)CSc1nnnn1CCCOC	i	1.5e-08	i	0%	0.8%
Cc1n[nH]c(C)c1N1C(=O)c2cccc3cc(Br)cc(c23)C1=O	.	.	.	-20%	-2.0%
COc1ccc(C(=O)CSc2nnc(-c3ccco3)n2CC2CCCO2)cc1 (stereo not drawn)	i	5.6e-08	i	8%	0.0%
NC1=NC2=C(CCCC2)C2(CCCCC2)S1	i	1e-09	i	.	1.1%
Cc1ccc(CNC(=O)c2cc3c(=O)n(C)c4ccccc4c3n2C)o1	.	.	.	-5%	0.3%
CCOC(=O)C1C(=O)CC(=O)CC1CC(C)SCC (stereo not drawn)	i	6.3e-09	i	2%	0.0%
COc1ccc2c(c1)CCc1c(C(=O)NC3CCCCC3)noc1-2	i	4.8e-08	i	?	0.5%
CC(=O)Nc1ccc(S(=O)(=O)N[C@H](C(=O)O)C(C)C)cc1	i	1e-09	i	-4%	-0.9%
SMILES	Resorufin fluor	A647 fluor	A488 fluor	TSHR ag	AID923
COc1ccc(OC)c(C2C=C(c3ccc(C)c(C)c3)Nc3nnnn32)c1 (stereo not drawn)	i	1.9e-08	i	10%	2.4%
Cn1c(=O)c2c(nc(CN3CCc4ccccc4C3)n2Cc2ccc(Cl)cc2)n(C)c1=O	i	4.5e-08	i	4%	0.4%
O=C(NCc1cccs1)C1CCN(c2ccc(S(=O)(=O)N3CCOCC3)cc2Cl)CC1	i	3.9e-08	i	?	0.9%
CCN1CCN(C(=O)c2ccc3c(=O)n(C4CCCC4)c(=S)[nH]c3c2)CC1	i	4.9e-09	i	-2%	-3.1%
COCC(=O)N(Cc1cc2ccccc2[nH]c1=O)c1ccc(OC)cc1	i	6.8e-09	i	19%	0.2%
Cc1cc2c(s1)CCCCC(=O)N2	.	.	.	?	-1.0%
Cc1[nH]nc(N=CC2=C(O)CC(c3ccco3)CC2=O)c1-c1ccccc1 (stereo not drawn)	i	2.8e-08	i	6%	14%
COc1ccc(Cl)cc1C(=O)Nc1ccc(NC(=O)c2ccco2)cc1	.	.	.	20%	-0.4%
CC1CCC2C(=O)N3C(CCC(C)C3c3ccccc3Br)C(=O)N2C1c1ccc(C#CCN(C)C)cc1 (stereo not drawn)	.	.	.	21%[11.4 µM]	-0.2%[11.5 µM]
Fc1ccc(-c2nnc3ccc(N4CCCC4)nn23)cc1	.	.	.	-13%	-1.8%
CCN(CC)CCN1C(=O)C(=O)/C(=C(/O)c2c(C)[nH]c(C(=O)OC)c2C)C1c1cccnc1 (stereo not drawn)	i	1e-09	i	7%	-0.3%
O=C(NCc1ccccn1)c1ccc(=O)oc1	i	6.9e-09	i	.	.
O=C(CSc1nccn1-c1cccc(Cl)c1)NC1CCCC1	i	2.2e-08	i	3%	3.3%
Cc1cc(=O)oc2cc(OCC(=O)N3CCCC(C)C3)ccc12 (stereo not drawn)	i	2.5e-08	i	3%	-2.3%
N#Cc1nc(-c2ccccc2Cl)oc1N1CCOCC1	i	1.8e-08	i	21%	0.2%
COc1ccc(/C=N/c2nc3ccccc3n2C)cc1OC	i	1.2e-08	i	-5%	1.2%
COC(=O)C1CCCN1C(C(=O)NC1CCCCC1)c1ccc(Cl)cc1 (stereo not drawn)	.	.	.	?	0.2%
Cn1c(-c2ccc(C(C)(C)C)cc2)n[nH]c1=S	.	.	.	26%	1.2%
Cn1c(=O)oc2cc(S(=O)(=O)Nc3cccc(C(=O)O)c3)ccc21	i	3.4e-09	i	0%	1.2%
CC1=C(C(=O)OC2CCCCC2)C(c2ccco2)n2ncnc2N1 (stereo not drawn)	.	.	.	9%	-0.1%
Cc1ccc(C)c(N(C(=O)Cn2nnc(-c3cccs3)n2)C(C(=O)NC2CC2)c2ccc(C)o2)c1 (stereo not drawn)	i	1.1e-08	i	7.9µM*	-0.1%
CN(C)c1nc(Oc2ccc(/C=N/O)cc2)nc(N(C)C)n1	.	.	.	17%	-0.6%
COc1ccc(C2C3=C(CCCC3=O)Nc3nc4ccccc4n32)cc1OC (stereo not drawn)	i	3.6e-09	i	-1%	3.0%
COc1ccc(-c2nnnn2-c2ccccc2OC)cc1	i	1.5e-08	i	24%	-1.0%
Cc1cnc(C(=O)OCC(=O)Nc2ccc(Cl)cc2)cn1	i	1e-09	i	8%	8.2%

A draw from above in order of length of the SMILES, high to low:
SMILES	Resorufin fluor	A647 fluor	A488 fluor	TSHR ag	AID923
CCN(CC)CCN1C(=O)C(=O)/C(=C(/O)c2c(C)[nH]c(C(=O)OC)c2C)C1c1cccnc1 (stereo not drawn)	i	1e-09	i	7%	-0.3%
Cn1c(=O)oc2cc(S(=O)(=O)Nc3cccc(C(=O)O)c3)ccc21	i	3.4e-09	i	0%	1.2%
COc1ccc(C2C3=C(CCCC3=O)Nc3nc4ccccc4n32)cc1OC (stereo not drawn)	i	3.6e-09	i	-1%	3.0%
COC(=O)C1CCCN1C(C(=O)NC1CCCCC1)c1ccc(Cl)cc1 (stereo not drawn)	.	.	.	?	0.2%

More records.
SMILES	Resorufin fluor	A647 fluor	A488 fluor	TSHR ag	AID923
CCCCNC(=O)Nc1cnn(CC)c1C(N)=O	i	3.7e-09	i	1%[11.4 µM]	0.1%
COC(=O)c1sc(NC(=O)c2csc3c2CCCC3)nc1C	i	2.4e-08	i	?	-2.1%
O=C(O)CN1CCN(Cc2ccccc2)C1=O	i	1e-09	i	-11%	4.3%
CCOC(=O)C(NC(=O)CC(C)C)(Nc1cc(C)on1)C(F)(F)F (stereo not drawn)	i	1e-09	i	1%	-0.9%
Cc1ccc(C)c(NC(=O)c2ccc3c(c2)N(Cc2ccc(F)cc2)C(=O)CS3=O)c1 (stereo not drawn)	.	.	.	?	1.5%
CCOC(=O)C1=C(C)OC(N)=C(C#N)C1c1cc(OC)c2c(c1)OCO2 (stereo not drawn)	i	7.1e-09	i	12%	2.1%
Cn1c(=O)c2c(SCC(N)=O)nc(CC(C)(C)C)nc2n(C)c1=O	.	.	.	6%	-0.5%
Cc1cnc(C(=O)OCC(=O)N2CCc3ccccc3C2)cn1	i	2.7e-08	i	1%	0.6%

High-throughput results (PubChem)
